Yeast UUG start – modulators of start codon recognition fidelity in yeast. 350,000 compounds, 0.13% hits. S. cerevisiae UUG-firefly luciferase reporter, luminescence/redox ratio. activity score, % at 18.7 µM;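 active = replicate mean at a twofold rise or more, about +100% in these data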;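 also: firefly luciferase made from a UUG start codon reports start codon fidelity; reporter light over untreated wells divided by growth signal over untreated wells; some hits fall short of that in this replicate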
An asterisk follows results filed as active. This is a subset; count on the stated rates, not on these rows.

SMILES	Yeast UUG start
O=C(NCCc1ccncc1)[C@@H]1[C@@H](CO)[C@@H]2Cn3c(ccc(-c4ccccc4)c3=O)[C@H]1N2	-14
COCC(=O)Nc1ccc2c(c1)[C@H]1C[C@H](CC(=O)N3CCc4ccccc4C3)O[C@@H](CO)[C@H]1O2	-5
COc1ccc(NC(=O)N2C[C@@H]3[C@H](c4ccccc42)[C@@H](CO)N3Cc2ccccn2)cc1	-13
COC(=O)C[C@H]1CC[C@H]2[C@@H](COc3ccc(NC(=O)c4cnccn4)cc3C(=O)N2C)O1	-4
CCC(=O)N1CC[C@H]2[C@@H]1c1cc(-c3ccccc3F)ccc1N(C)[C@H]2CO	-14
C[C@@H]1CN([C@H](C)CO)C(=O)Cc2cc(NC(=O)c3ccncc3)ccc2O[C@H]1CN(C)S(=O)(=O)c1ccc(F)cc1	-15
CC(=O)N1[C@H](CO)[C@@H](c2ccccc2)[C@H]1CN(CC1CCC1)C(=O)CN(C)C	-6
C[C@@H]1CN([C@H](C)CO)C(=O)c2cc(NS(C)(=O)=O)ccc2O[C@H]1CN(C)S(=O)(=O)c1cn(C)cn1	-11
CN1C(=O)c2cc(NS(C)(=O)=O)ccc2OC[C@@H]2O[C@H](CC(=O)O)CC[C@@H]21	-11
Cc1noc(C)c1NC(=O)Nc1ccc2c(c1)C(=O)N([C@H](C)CO)C[C@H](C)[C@H](CN(C)Cc1ccc3c(c1)OCO3)O2	6
C[C@@H]1CN([C@@H](C)CO)C(=O)Cc2cc(NC(=O)CCC(F)(F)F)ccc2O[C@H]1CN(C)C(=O)Nc1ccc(F)cc1	2
Cc1ccc(S(=O)(=O)N(C)C[C@@H]2Oc3ccc(NC(=O)NC(C)C)cc3CC(=O)N([C@@H](C)CO)C[C@@H]2C)cc1	26
CC(C)C#Cc1ccc([C@@H]2[C@H]3CN(C(=O)c4ccc5c(c4)OCO5)CCCCN3[C@H]2CO)cc1	9
COc1ccc(NC(=O)N2CCCCN3[C@H](CO)[C@H](c4ccc(-c5ccccc5C)cc4)[C@H]3C2)cc1	-2
C[C@@H]1CN([C@@H](C)CO)C(=O)c2cc(NC(=O)CCN3CCOCC3)ccc2O[C@H]1CN(C)C(=O)Nc1ccc(C(F)(F)F)cc1	1
CC(=O)N1[C@@H]2CN(C(=O)c3ccccc3)c3ccccc3[C@@H]2[C@@H]1CO	-10
C[C@H]1CN([C@@H](C)CO)C(=O)c2cccc(NS(=O)(=O)c3cccs3)c2O[C@@H]1CN(C)Cc1ccc(-c2ccccc2)cc1	-10
Cc1noc(C)c1NC(=O)N(C)C[C@@H]1Oc2ccc(NC(=O)c3ccncc3)cc2C(=O)N([C@@H](C)CO)C[C@H]1C	-23
O=C(c1cccnc1)N1C[C@@H]2[C@H](c3ccccc31)[C@@H](CO)N2C(=O)Nc1ccc(F)cc1	52
COc1ccc(C#Cc2ccc([C@H]3[C@@H](CO)N4CCCCN(C(=O)Nc5ccccc5)C[C@@H]34)cc2)cc1	43
CO[C@@H]1CN(C)C(=O)c2cc(NC(=O)NC(C)C)ccc2OC[C@@H](C)N(Cc2ccccn2)C[C@H]1C	-14
CCCNC(=O)Nc1ccc2c(c1)OC[C@H](C)N(C(=O)C1CCC1)C[C@@H](C)[C@H](OC)CN(C)C2=O	23
CO[C@@H]1CN(C)C(=O)c2ccc(NC(=O)C3CC3)cc2OC[C@H](C)N(C(=O)c2ccccc2)C[C@H]1C	0
C[C@H]1CN([C@@H](C)CO)C(=O)Cc2cc(NC(=O)C3CCCCC3)ccc2O[C@H]1CN(C)Cc1ccccc1	6
COc1ccc(CN(C)C[C@H]2Oc3c(NC(=O)Nc4c(C)noc4C)cccc3C(=O)N([C@@H](C)CO)C[C@H]2C)cc1	-12

Continuation.
SMILES	Yeast UUG start
CCCNC(=O)NC[C@H]1[C@H](c2ccc(C3=CCCC3)cc2)[C@H](CO)N1C(=O)CC	29
C/C=C/c1ccc([C@H]2[C@H](CO)N(C(=O)COC)[C@H]2CNC(=O)CC)cc1	5
CCCNC(=O)N1CC[C@@H]2[C@@H](CO)N(C)c3ccc(-c4ccccc4)cc3[C@@H]21	20
CCC(=O)N1[C@@H](CO)[C@@H](c2ccc(C3=CCCC3)cc2)[C@@H]1CNC(=O)CN(C)C	21
C[C@@H]1CN([C@H](C)CO)C(=O)c2cc(NC(=O)CCC(F)(F)F)ccc2O[C@@H]1CN(C)C(=O)Nc1ccc(F)cc1	12
CNC[C@H]1Oc2ccc(NS(=O)(=O)c3cccs3)cc2C(=O)N([C@H](C)CO)C[C@H]1C	-4
O=C(c1cnccn1)N1CC[C@H]2[C@H](CO)Nc3ccc(-c4ccccc4F)cc3[C@H]21	-2
CO[C@H]1CN(C)C(=O)c2cc(NC(=O)NC3CCCCC3)ccc2OC[C@@H](C)N(CC2CC2)C[C@H]1C	-11
CC(=O)N1[C@H](CO)[C@H](c2ccc(C3=CCCC3)cc2)[C@H]1CNC(=O)CN(C)C	-6
O=C(Nc1ccc(Cl)cc1)N1C[C@@H]2[C@H](c3ccccc31)[C@@H](CO)N2CC1CCCCC1	-9
O=C(c1ccccc1)N1C[C@H]2[C@@H](c3ccccc31)[C@@H](CO)N2S(=O)(=O)c1ccccc1	-2
CCC(=O)Nc1ccc2c(c1)OC[C@@H](C)N(C(=O)CC1CC1)C[C@@H](C)[C@@H](OC)CN(C)C2=O	35
C[C@H](CO)N1C[C@H](C)[C@H](CN(C)S(=O)(=O)c2ccc(Cl)cc2)Oc2ccc(NC(=O)CCN3CCOCC3)cc2C1=O	6
O=C(C1CCCC1)N1CCCCN2[C@H](C1)[C@H](c1ccc(C#CC3(O)CCCC3)cc1)[C@@H]2CO	16
O=C(C1CCC1)N1CCCCN2[C@H](CO)[C@H](c3ccc(C#CC4CCCC4)cc3)[C@@H]2C1	12
CCCN1C[C@@H](C)[C@@H](OC)CN(C)C(=O)c2cc(NC(=O)NC3CCCCC3)ccc2OC[C@H]1C	4
CN(C)CC#Cc1ccc([C@H]2[C@@H](CO)N3CCCCN(C(=O)CN(C)C)C[C@H]23)cc1	17
O=S(=O)(c1ccccc1)N1CCCCN2[C@H](C1)[C@H](c1ccc(C#CC3CCCC3)cc1)[C@@H]2CO	3
CO[C@H]1CN(C)C(=O)c2ccc(NC(=O)C3CCCCC3)cc2OC[C@@H](C)N(Cc2nccs2)C[C@@H]1C	21
C/C=C/c1ccc([C@@H]2[C@@H](CO)N3CCCCN(S(=O)(=O)c4ccccc4)C[C@@H]23)cc1	4
CC=Cc1ccc2n(c1=O)C[C@H]1[C@H](CO)[C@@H](C(=O)NCc3cccc(F)c3)[C@@H]2N1S(C)(=O)=O (mixture of isomers)	12
CC(=O)NC[C@@H]1[C@H](c2ccccc2)[C@H](CO)N1C(=O)Cc1ccncc1	-5
O=C(CN1CCOCC1)N1CC[C@@H]2[C@H](CO)Nc3ccc(-c4ccc(F)cc4)cc3[C@@H]21	-4
COc1ccc(CN(C)C[C@H]2Oc3c(NC(=O)c4ccc(-c5nccs5)cc4)cccc3C(=O)N([C@@H](C)CO)C[C@@H]2C)cc1	-7
CO[C@H]1CN(C)C(=O)c2cc(NC(C)=O)ccc2OC[C@@H](C)N(C(=O)C2CCCCC2)C[C@H]1C	0

Three entries out of the list above, arranged by the value under Yeast UUG start, low to high.
Structure | Yeast UUG start
C/C=C/c1ccc([C@H]2[C@H](CO)N(C(=O)COC)[C@H]2CNC(=O)CC)cc1 | 5
CCCNC(=O)N1CC[C@@H]2[C@@H](CO)N(C)c3ccc(-c4ccccc4)cc3[C@@H]21 | 20
CCC(=O)N1[C@@H](CO)[C@@H](c2ccc(C3=CCCC3)cc2)[C@@H]1CNC(=O)CN(C)C | 21

(further entries)
SMILES	Yeast UUG start
CC(C)OC(=O)N(C)C[C@@H]1OCc2ccccc2-c2c(n(C)c3ccccc23)C(=O)N([C@@H](C)CO)C[C@@H]1C	4
C[C@H](CO)N1C[C@H](C)[C@H](CN(C)Cc2ccc(C(=O)Nc3ccccc3N)cc2)Oc2c(NS(=O)(=O)c3cccs3)cccc2C1=O	7
CCCNC(=O)Nc1ccc2c(c1)OC[C@H](C)N(C(=O)c1ccccc1F)C[C@@H](C)[C@H](OC)CN(C)C2=O	5
C[C@@H]1CN([C@H](C)CO)C(=O)Cc2cc(NC(=O)Nc3ccc(F)cc3)ccc2O[C@@H]1CN(C)Cc1ccc2c(c1)OCO2	-15
C[C@@H]1CN([C@@H](C)CO)C(=O)c2cccc(NC(=O)C3CCCCC3)c2O[C@H]1CN(C)Cc1ccc(C(F)(F)F)cc1	5
CCC(=O)N1CCCCN2[C@@H](CO)[C@@H](c3ccc(-c4cccc(C(=O)N(C)C)c4)cc3)[C@@H]2C1	-4
Cc1noc(C)c1NC(=O)Nc1ccc2c(c1)C(=O)N([C@@H](C)CO)C[C@H](C)[C@H](CN(C)Cc1ccc(C(=O)O)cc1)O2	-18
N#Cc1ccc(-c2ccc3c(c2)[C@H]2[C@H](CCN2C(=O)c2ccc4c(c2)OCO4)[C@H](CO)N3)cc1	-13
O=C(C1CCC1)N1CCCCN2[C@H](CO)[C@H](c3ccc(C#CC4(O)CCCC4)cc3)[C@@H]2C1	21
COc1ccc(S(=O)(=O)N2C[C@@H](O)COC[C@@H]3O[C@@H](CC(=O)NCCCN4CCOCC4)CC[C@H]32)cc1	-7
C[C@@H]1CN([C@H](C)CO)C(=O)c2cc(NC(=O)CCC(F)(F)F)ccc2O[C@H]1CN(C)S(=O)(=O)c1cn(C)cn1	26
CO[C@@H]1CN(C)C(=O)c2cc(NC(=O)Nc3c(C)noc3C)ccc2OC[C@@H](C)N(CC2CC2)C[C@@H]1C	-3
COc1cccc(NC(=O)C[C@H]2CC[C@@H]3[C@H](COc4ccc(NC(=O)c5ccccc5F)cc4C(=O)N3C)O2)c1	12
CCCNC(=O)N1C[C@@H]2[C@H](c3ccccc31)[C@@H](CO)N2C(=O)C1CCOCC1	-6
C[C@H](CO)N1C[C@H](C)[C@H](CN(C)Cc2ccc(C(=O)O)cc2)Oc2c(NC(=O)Nc3ccccc3)cccc2C1=O	-3
COc1ccc(CN(C)C[C@@H]2Oc3c(NC(=O)NC4CCCCC4)cccc3C(=O)N([C@H](C)CO)C[C@H]2C)cc1	-2
CO[C@@H]1CN(C)C(=O)c2ccc(NC(C)=O)cc2OC[C@H](C)N(CCC(F)(F)F)C[C@@H]1C	-7
CC=Cc1ccc2n(c1=O)C[C@@H]1[C@@H](CO)[C@H](C(=O)N(C)C)N(CC3CC3)[C@H]21 (mixture of isomers)	-10
O=C(c1ccc2c(c1)OCO2)N1CCCCN2[C@H](CO)[C@H](c3ccc(-c4ccccc4)cc3)[C@H]2C1	5
C[C@H](O)C#Cc1ccc([C@H]2[C@H](CO)N3CCCCN(CC4CC4)C[C@@H]23)cc1	3
Cc1noc(C)c1NC(=O)N(C)C[C@@H]1Oc2ccc(NC(=O)CCCN(C)C)cc2C(=O)N([C@@H](C)CO)C[C@@H]1C	-16
CCCNC(=O)N1C[C@@H]2[C@H](c3ccccc31)[C@@H](CO)N2C(=O)c1ccncc1	-6
CCCC#Cc1ccc([C@@H]2[C@@H](CO)N3CCCCN(S(C)(=O)=O)C[C@H]23)cc1	7
C[C@H]1CN([C@@H](C)CO)C(=O)Cc2cc(NC(=O)Nc3cccc4ccccc34)ccc2O[C@@H]1CN(C)Cc1ccc2c(c1)OCO2	10
CN(C)CC(=O)N1CCCCN2[C@H](C1)[C@@H](c1ccc(-c3cccc(C(=O)N(C)C)c3)cc1)[C@@H]2CO	-16

Copied from the listing for reference:
SMILES	Yeast UUG start
Cc1noc(C)c1NC(=O)N(C)C[C@@H]1Oc2ccc(NC(=O)CCCN(C)C)cc2C(=O)N([C@@H](C)CO)C[C@@H]1C	-16
CCCNC(=O)N1C[C@@H]2[C@H](c3ccccc31)[C@@H](CO)N2C(=O)c1ccncc1	-6
CCCC#Cc1ccc([C@@H]2[C@@H](CO)N3CCCCN(S(C)(=O)=O)C[C@H]23)cc1	7
C[C@H]1CN([C@@H](C)CO)C(=O)Cc2cc(NC(=O)Nc3cccc4ccccc34)ccc2O[C@@H]1CN(C)Cc1ccc2c(c1)OCO2	10
CN(C)CC(=O)N1CCCCN2[C@H](C1)[C@@H](c1ccc(-c3cccc(C(=O)N(C)C)c3)cc1)[C@@H]2CO	-16

Going on with the list.
SMILES	Yeast UUG start
COc1ccc(CN(C)C[C@@H]2Oc3ccc(NS(=O)(=O)c4ccccc4)cc3C(=O)N([C@H](C)CO)C[C@@H]2C)cc1	11
CCCNC(=O)NC[C@H]1[C@H](c2ccc(C3=CCCC3)cc2)[C@@H](CO)N1C(C)=O	-4
COc1ccc(S(=O)(=O)N2CCCCN3[C@@H](CO)[C@@H](c4ccc(-c5cccnc5)cc4)[C@@H]3C2)cc1	-9
COCC(=O)NC[C@@H]1[C@@H](c2ccc(-c3ccccc3)cc2)[C@H](CO)N1C(C)=O	9
C[C@@H]1CN([C@H](C)CO)C(=O)c2cc(NC(=O)C3CCCCC3)ccc2O[C@@H]1CN(C)C(=O)Nc1ccccc1	4
C[C@H](CO)N1C[C@H](C)[C@H](CN(C)Cc2ccc(Cl)c(Cl)c2)Oc2ccc(NC(=O)Cc3ccccc3)cc2C1=O	10
COc1ccc(C(=O)N2C[C@H]3[C@@H](c4ccccc42)[C@H](CO)N3Cc2ccc3c(c2)OCO3)cc1	4
C[C@H]1CN([C@@H](C)CO)C(=O)c2cccc(NS(=O)(=O)c3ccccc3)c2O[C@@H]1CN(C)CC1CC1	9
C[C@H](CO)N1C[C@H](C)[C@@H](CN(C)S(C)(=O)=O)Oc2ccc(NC(=O)Cc3cn(C)c4ccccc34)cc2CC1=O	23
CCCNC(=O)C[C@H]1CC[C@H]2[C@@H](COC[C@@H](O)CN2Cc2ccncc2)O1	1
Cc1ccc(S(=O)(=O)N(C)C[C@H]2Oc3c(NC(=O)c4nc5ccccc5s4)cccc3C(=O)N([C@H](C)CO)C[C@@H]2C)cc1	-17

3 compounds already listed, ordered by molecular weight, rising.
SMILES	Yeast UUG start
CCCNC(=O)C[C@H]1CC[C@H]2[C@@H](COC[C@@H](O)CN2Cc2ccncc2)O1	1
COc1ccc(S(=O)(=O)N2CCCCN3[C@@H](CO)[C@@H](c4ccc(-c5cccnc5)cc4)[C@@H]3C2)cc1	-9
COc1ccc(CN(C)C[C@@H]2Oc3ccc(NS(=O)(=O)c4ccccc4)cc3C(=O)N([C@H](C)CO)C[C@@H]2C)cc1	11

From PubChem
